Assay outcomes (PubChem)
Arbovirus anti: antivirals against arbovirus infection | arbovirus infection cell-based antiviral screen | inhibition, % at 10 µM | 200,000 compounds, 0.37% hits | AID 1251;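 active = inhibition from about 30%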;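 note: bluetongue infection of BSR cells; cell survival read as ATP light after 72 h; 0% = infected wells without compound and 100% = uninfected wells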
YopH PTP inh: inhibitors of Yersinia enterocolitica YopH tyrosine phosphatase; fluorescence Ex485/Em525; 140,000 compounds, 0.16% hits; AID 898; inhibition, %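 (about 10 µM by stock and volumes)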;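 active = inhibition of 50% or more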;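 note: controls were vehicle for no effect and minimum signal wells for full effect; inactives centre near -20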
Mtb growth: M. tuberculosis H37Rv growth inhibitors, H37Rv strain (AID 1626) | M. tuberculosis H37Rv growth inhibition; higher % means a stronger effect | inhibition, % at 10 µM; hits with a dose series show IC50 in µM | 220,000 compounds, 0.95% hits;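 active = confirmed in a dose series; inconclusive = inhibition above 80% but not taken into the dose series; inactive = below 80% or under 30% at every dose of the series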;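 note: bacteria incubated seven days before Alamar blue readout; 0% = bacteria only wells and 100% = bacteria with antibiotic wells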
Mtb bLac sens: beta-lactam sensitization of Mtb H37Rv; 330,000 compounds, 0.27% hits; inhibition, % at 25 µM; AID 434955; M. tuberculosis H37Rv growth with meropenem, percent inhibition; hits of this screen are not shown here;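 active = about 74% or more and at least 40 points above the plate without the antibiotic, then above 30% in a dose series; inconclusive = first-round hits that could not be retested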;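 note: growth measured after seven days incubation then overnight dye step; 0% = bacteria only wells and 100% = bacteria with antibiotic; twin plates without the antibiotic show which effects depend on it; some results filed as inactive read as strong as hits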
RecA splice inh: blocks M. tuberculosis RecA intein splicing. P9WHJ3. cell-free RecA intein splicing, fluorescence. inhibition, %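 (about 9 µM by stock and volumes)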. 290,000 compounds, 0.75% hits. AID 2221; in the data active = inhibition above about 30%; inconclusive = no clear call, values can overlap the other calls;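 note: 0% = vehicle wells and 100% = reference inhibitor control wells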
Target sequence (P9WHJ3 whole entry, looked up, canonical isoform): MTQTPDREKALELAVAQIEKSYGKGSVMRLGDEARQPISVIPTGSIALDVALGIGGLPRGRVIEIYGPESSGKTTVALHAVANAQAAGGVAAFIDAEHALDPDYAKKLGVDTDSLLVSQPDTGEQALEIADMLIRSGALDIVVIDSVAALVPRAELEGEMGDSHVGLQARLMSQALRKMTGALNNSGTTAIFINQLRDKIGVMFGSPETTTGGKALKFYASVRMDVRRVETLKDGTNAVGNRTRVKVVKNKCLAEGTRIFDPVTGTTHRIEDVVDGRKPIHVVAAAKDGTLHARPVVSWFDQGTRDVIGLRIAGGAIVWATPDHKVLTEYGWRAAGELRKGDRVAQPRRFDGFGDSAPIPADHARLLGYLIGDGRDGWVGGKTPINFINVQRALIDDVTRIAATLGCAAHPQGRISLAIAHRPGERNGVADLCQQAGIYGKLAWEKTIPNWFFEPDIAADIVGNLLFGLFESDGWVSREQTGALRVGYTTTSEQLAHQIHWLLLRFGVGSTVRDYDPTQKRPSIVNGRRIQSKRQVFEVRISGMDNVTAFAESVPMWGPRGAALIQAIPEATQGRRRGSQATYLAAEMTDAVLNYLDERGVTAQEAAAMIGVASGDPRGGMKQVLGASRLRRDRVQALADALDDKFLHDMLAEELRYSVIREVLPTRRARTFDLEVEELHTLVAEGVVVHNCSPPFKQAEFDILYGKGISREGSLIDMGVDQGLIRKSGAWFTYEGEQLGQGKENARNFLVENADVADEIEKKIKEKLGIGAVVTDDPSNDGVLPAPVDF
Arbovirus anti repeat: further read-out of Arbovirus anti, marked with its call; inhibition, %; measured here: 10K subset replicate screen; many hits read low in the repeat;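 first of two repeat runs on a subset; 0% = infected and 100% = uninfected wells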
Numbers without * were called inactive; ? = inconclusive; . = not tested or not shown.

SMILES	Arbovirus anti	YopH PTP inh	Mtb growth	Mtb bLac sens	RecA splice inh	others
O=C(NN1C(=O)c2ccccc2NC1c1ccc([N+](=O)[O-])o1)c1ccccc1 (stereo not given)	-3	.	4%	48	-3.8
CCc1nc(SCC(=O)N2c3ccccc3Sc3ccccc32)c2ccccc2n1	-9	-49	-11%	0	5.5
Cn1c(=O)c2[nH]c(Nc3ccccc3)nc2n(C)c1=O	-4	-29	-9%	-4	-5.6
COc1ccc(-c2ccc([C@H]3[C@H]4C=CC[C@@H](C)[C@@H]4C(=O)N3Cc3ccccc3)c(F)c2)cc1OC	.	.	14%	19	8.8
COc1ccccc1N1CCN(C(=O)C(=O)c2c(C)n(C)c3ccccc23)CC1	.	.	.	-4	-8.6
FC(F)Oc1ccc(NC(=S)NC2CCSc3ccccc32)cc1 (stereo not given)	.	.	.	66	15
C#CCN(C(=O)c1cc(COc2ccc(C)c(C)c2)on1)C1CCCCC1	.	.	.	?	14
O=C(C1=C[C@H](c2ccc(Br)cc2)C[C@H](OCc2ccc(CO)cc2)O1)N1CCN(Cc2ccc3c(c2)OCO3)CC1	-13	.	9%	.	6.6
O=C(CN1CCOCC1)Nc1cccc(S(=O)(=O)N2CCCCCC2)c1	9	.	-3%	0	-0.3
Cc1ccc(NC(=O)CN(c2ccc3c(c2)OCO3)S(=O)(=O)c2c(C)n[nH]c2C)cc1	-4	-11	-6%	6	.	Arbovirus anti repeat=0
COc1ccc(-c2nnn(Cc3nc(N)nc(N4CCCCC4)n3)n2)cc1	10	-24	4%	-3	1.3
C=CCSc1nc(N)c(C#N)c(-c2ccccc2)c1C#N	-1	-37	2%	2	2.0
COc1ccc(C(=O)C2CCCN(Cc3ccc4nonc4c3)C2)c(C)c1 (stereo not given)	.	.	15%	11	5.5
CCn1c(/C=C/c2c[nH]c3ccccc23)nc2ccccc2c1=O	0	.	5%	-2	-6.8
O=C1CC(SC(=Nc2ccccc2)Nc2ccccc2)C(=O)N1c1cccc2ccccc12 (stereo not given)	-8	9	15%	-6	-0.6
N#CCCN(NC1=NS(=O)(=O)c2ccccc21)C(=O)c1ccccc1Br	.	.	.	-2	-2.2
CC1CC(C)CN(Cc2nc3c(c(=O)n(C)c(=O)n3C)n2CCN2CCOCC2)C1 (stereo not given)	6	-34	-6%	3	1.9
CCC(=Nc1ccccc1N)c1c(O)[nH]c(=O)[nH]c1=O	.	.	.	8	-1.4
CCOC(=O)CNC(=O)CSc1nnc(-c2ccco2)n1Cc1ccco1	-3	-32	-5%	-9	2.0	Arbovirus anti repeat=6
CCCCSC1=C(C#N)C(c2ccccc2C)C(C(=O)OCC)C(=O)N1 (stereo not given)	3	-50	11%	7	-0.3
Cc1ccc(S(=O)(=O)NCC2(c3ccccc3)CCOCC2)cc1	1	.	-15%	4	0.4
Cc1cccn2c(=O)nc(SCC(=O)NC3CCCC3)nc12	.	.	.	-10	0.1
Cc1cc(C)c2c(c1)c(C)cc1nnc(SCC(=O)NCc3ccco3)n12	2	-37	12%	-1	2.0
COc1ccc(-c2noc(CSc3ccccc3)n2)cc1OC	-2	-47	-3%	63	.
CN(CC1CCCN(CCc2ccc(Cl)cc2)C1)C(=O)c1ccoc1 (stereo not given)	.	.	.	-15	0.2
CCN1CCN(C(=O)CNC(=O)c2nn(-c3ccc(OC)cc3)c(=O)c3ccccc23)CC1	.	.	.	0	0.7
Cc1c(/C=N/NC(=O)CNc2ccccc2)c2ccccn2c1C(=O)c1ccccc1	-3	-24	8%	10	-1.3
O=C(CSC1CN(C(c2ccccc2)c2ccccc2)C1)N/N=C/c1ccc(Cl)cc1Cl	.	.	1%	2	0.2
CCC(C)NCC(=O)Nc1ccc(-c2nc3cc(NC(=O)CNC(C)CC)ccc3o2)cc1 (stereo not given)	-20	-29	7%	-1	.
Clc1ccc(-c2nnc(-c3ccco3)nc2N2CCCCC2)cc1	-9	-17	2%	3	8.9
O=C(NCCc1ccc(C(F)(F)F)cc1)C1CCC(=O)N(C2CC2)C1 (stereo not given)	.	.	.	-4	-2.7
Cc1cc(Nc2ccccc2)nn1C(=O)c1ccc(Br)cc1	-1	-24	-1%	45	-9.6
OC(c1ccc(F)cc1)(C1CCCCC1)C(CN1CCOCC1)c1ccccc1 (stereo not given)	.	.	.	4	15
Cc1cc(C)c(C(=O)CSc2n[nH]c(=O)n2C2CC2)cc1C	6	-67	-13%	-6	0.6
O=C(NCc1ccccn1)C(=O)NCc1ccccn1	-4	.	-5%	0	-1.5
Cc1nn(-c2ccc(F)cc2)c2nc(N)c(C#N)c(-c3cccs3)c12	-5	-13	4%	11	2.8
COC(=O)c1ccc(-n2nnnc2SCC(=O)Nc2ccccc2OC)cc1	6	-58	11%	0	1.3
CCc1ccccc1NC(=O)N1CCc2ccccc21	.	.	5%	-1	2.8
O=C(N/N=C/c1cccc(Oc2ccccc2)c1)c1cccc(Br)c1	-10	-47	-4%	15	5.9
COCCn1nnnc1C(c1ccc(OC)c(OC)c1)N1CCN(c2nc3ccccc3s2)CC1 (stereo not given)	.	-8	3%	0	2.6
Cc1cccc(/C(N)=N/OC(=O)Cc2cccc3ccccc23)c1	-1	.	5%	3	0.2
O=C(N/N=C/c1c[nH]c2ccc(Br)cc12)c1ccn(Cc2ccc(Cl)cc2Cl)n1	-19	-29	17%	30	15
COc1ccc(Cc2nc(C(=O)NCc3ccccc3OC)cs2)cc1	7	-37	18%	3	11
COc1ccc(C(=O)N2CCN(c3cccc(Cl)c3)CC2)c(OC)c1	-24	14	7%	-9	3.2
CC(C)CSc1ncc(-c2cccc(C(F)(F)F)c2)cn1	-1	-29	-3%	-1	0.7
C/C(=N\NC(=O)c1cc(-c2cccc([N+](=O)[O-])c2)n[nH]1)c1ccc(F)cc1	.	.	1%	1	-4.4
O=C(O)C1CSC(CCc2ccccc2)N1 (stereo not given)	4	-21	-5%	-12	-3.6
COc1ccc(CN2CCC(N(CCc3ccccc3)Cc3ccccc3)CC2)c(OC)c1	-31	.	?	100	15
COc1ccc(CNC(=O)CN2C(=O)COc3ccc(S(=O)(=O)N4CCCC4)cc32)cc1	.	.	.	-6	4.6
COC(=O)C1=C(C)NC(C)=C(C(=O)OC)C1C(=O)OCc1nnc(-c2ccccc2)o1	.	.	.	-5	-0.9
Later entries
SMILES	Arbovirus anti	YopH PTP inh	Mtb growth	Mtb bLac sens	RecA splice inh	others
CC1(C(=O)N(Cc2ccccc2)Cc2ccccc2)CC1(Br)Br (stereo not given)	0	1	5%	-3	19
Cc1ccc(Cl)cc1NC(=O)COC(=O)c1ccc(COc2ccc3c(C)cc(=O)oc3c2)cc1	6	-17	6%	4	.
O=C(Nc1ccccc1)c1nnn(Cc2ccccc2)c1NC(=O)C(F)(F)F	-17	-8	-4%	0	.
Cc1c(NC(=S)NC(=O)Cc2ccccc2)cccc1C(=O)O	0	-40	-1%	3	-3.5
COc1cccc(C(=O)Nc2ccc(C(=O)NCC(C)C)cc2)c1	-4	.	-4%	-1	-0.6
CSc1ncc(C(=O)O)c(C)n1	4	-33	1%	-1	-0.4
Cc1cc(C)nc(Sc2ccc(/C=C(\C#N)C(=O)Nc3ccccc3)o2)n1	-7	-9	-1%	-2	2.1
CC(C)c1ccc(NC(=O)c2ccccc2NC(=O)C2CCCCC2C(=O)O)cc1 (stereo not given)	.	.	.	-2	1.1
COc1ccc2c(CC(=O)OCC(=O)Nc3cc(C)c(C)cc3[N+](=O)[O-])coc2c1	6	-16	2%	-4	1.9
COc1cccc(NC(=O)CN2CCN(c3ccccc3F)CC2)c1	-5	-28	-6%	-4	1.8
CC(C)N(Cc1cnn(C)c1)C(=O)c1ccc(OC2CCN(Cc3ccccn3)CC2)cc1	.	.	.	2	-0.5
O=C(CNC(=O)c1ccccc1F)N/N=C/c1cn[nH]c1-c1ccccc1	-7	-35	3%	-2	1.2
CCCSc1nc(SCC(=O)NCc2ccccc2)c2c3c(sc2n1)COC(C)(CC)C3 (stereo not given)	-9	-32	-11%	-9	-2.6
O=C(CSc1nnnn1C1CCCC1)Nc1ccc2c(c1)OCO2	-21	-29	31%	-6	1.4
COc1ccccc1N1CCN(C(=O)c2ccc(NC3=NC4CS(=O)(=O)CC4S3)cc2)CC1 (stereo not given)	.	.	.	10	0.5
S=C(NCc1cccnc1)Nc1ccc(Cl)cc1Cl	3	.	3%	-3	10
COC(=O)c1ccc(Cl)c(NC(=O)c2ccc(-c3ccccc3)cc2)c1	-4	5	-2%	.	.
CS(=O)(=O)N1CCc2cc(S(=O)(=O)Nc3ccc4oc5c(c4c3)CCCC5)ccc21	-17	-10	-4%	-8	7.8
O=C(c1ccccc1)c1ccc(OCC(O)CNCc2cccc(Cl)c2)cc1 (stereo not given)	.	.	.	81	1.8
O=C(Cn1cncc1-c1ccc([N+](=O)[O-])cc1)Nc1ccccc1F	-2	-10	-3%	3	-0.2
Cc1ccc(CCNC(=O)C2CCC(CNc3c(N4CCCC4)c(=O)c3=O)CC2)cc1 (stereo not given)	10	-36	.	-1	-0.4
Cc1cc(C)c(NC(=O)C(C)Sc2nc3ccc(N4C(=O)c5ccccc5C4=O)cc3s2)c(C)c1 (stereo not given)	-3	-37	-17%	?	0.9
CC(=O)C1=C(C)NC(SCC(N)=O)=C(C#N)C1c1cccnc1 (stereo not given)	-2	-12	-3%	4	-6.9	Arbovirus anti repeat=2
CCCC(C)C1C(C#N)=C(N)Oc2c1c(=O)oc1ccccc21 (stereo not given)	4	-12	-3%	1	-5.5	Arbovirus anti repeat=5
COc1ccccc1NS(=O)(=O)c1ccc2oc(SCc3ccc(F)cc3)nc2c1	7	-19	3%	3	0.3
COc1ccc(CC(=O)Nc2c3c(nn2-c2ccccc2C)CS(=O)C3)cc1 (stereo not given)	6	1	-9%	3	-0.4
COc1ccc(OC)c(C(C)NC(=O)C(C)Cc2ccccc2)c1 (stereo not given)	.	.	.	-11	-0.8
O=C(O)c1ccc(C(=O)C(=O)c2ccccc2)cc1	.	.	7%	2	-2.7
O=C(NCc1cccnc1)C(=O)NCC(c1ccco1)N1CCOCC1 (stereo not given)	6	.	5%	-1	0.5
COCCOC(=O)C1=C(N)Oc2c(oc(CO)cc2=O)C1c1ccccc1F (stereo not given)	-1	-25	-7%	0	1.3
COCCCN1C(=O)C(=O)/C(=C(/O)c2ccc(OC)cc2C)C1c1cccnc1 (stereo not given)	0	-46	-10%	-12	0.5

A portion of the library. The share of hits here may be higher or lower than overall.
